Compound activity: PubChem, several laboratories
YopH PTP inh: YopH tyrosine phosphatase inhibitors, primary screen, biochemical, fluorescence Ex485/Em525; inhibition, %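 (about 10 µM by stock and volumes)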; actives 0.16% (n = 140,000);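 active = inhibition of 50% or more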;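 note: controls were vehicle for no effect and minimum signal wells for full effect; inactives centre near -20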
Arbovirus inh: antivirals against arbovirus infection, primary screen, cell-based, full library, 10K replicate subset | arbovirus infection cell-based antiviral screen | inhibition, % at 10 µM | actives 0.37% (n = 200,000) | AID 1251, 2008;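 active = inhibition from about 30%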;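 note: bluetongue infection of BSR cells; cell survival read as ATP light after 72 h; 0% = infected wells without compound and 100% = uninfected wells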
Mtb growth: M. tuberculosis H37Rv growth inhibitors, H37Rv strain (AID 1626); actives 0.95% (n = 220,000); M. tuberculosis H37Rv growth inhibition; higher % means a stronger effect; inhibition, % at 10 µM, or IC50 in µM where a hit was titrated;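 active = confirmed in a dose series; inconclusive = inhibition above 80% but not taken into the dose series; inactive = below 80% or under 30% at every dose of the series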;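 note: bacteria incubated seven days before Alamar blue readout; 0% = bacteria only wells and 100% = bacteria with antibiotic wells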
RecA intein inh: Mtb RecA intein splicing inhibitors, primary screen, biochemical, fluorescence, HTS; Protein RecA (Mycobacterium tuberculosis (strain ATCC 25618 / H37Rv)), P9WHJ3; cell-free RecA intein splicing; inhibition, %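 (about 9 µM by stock and volumes)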; actives 0.75% (n = 290,000); in the data active = inhibition above about 30%; inconclusive = no clear call, values can overlap the other calls;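 note: 0% = vehicle wells and 100% = reference inhibitor control wells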
Target sequence (P9WHJ3 whole entry, looked up): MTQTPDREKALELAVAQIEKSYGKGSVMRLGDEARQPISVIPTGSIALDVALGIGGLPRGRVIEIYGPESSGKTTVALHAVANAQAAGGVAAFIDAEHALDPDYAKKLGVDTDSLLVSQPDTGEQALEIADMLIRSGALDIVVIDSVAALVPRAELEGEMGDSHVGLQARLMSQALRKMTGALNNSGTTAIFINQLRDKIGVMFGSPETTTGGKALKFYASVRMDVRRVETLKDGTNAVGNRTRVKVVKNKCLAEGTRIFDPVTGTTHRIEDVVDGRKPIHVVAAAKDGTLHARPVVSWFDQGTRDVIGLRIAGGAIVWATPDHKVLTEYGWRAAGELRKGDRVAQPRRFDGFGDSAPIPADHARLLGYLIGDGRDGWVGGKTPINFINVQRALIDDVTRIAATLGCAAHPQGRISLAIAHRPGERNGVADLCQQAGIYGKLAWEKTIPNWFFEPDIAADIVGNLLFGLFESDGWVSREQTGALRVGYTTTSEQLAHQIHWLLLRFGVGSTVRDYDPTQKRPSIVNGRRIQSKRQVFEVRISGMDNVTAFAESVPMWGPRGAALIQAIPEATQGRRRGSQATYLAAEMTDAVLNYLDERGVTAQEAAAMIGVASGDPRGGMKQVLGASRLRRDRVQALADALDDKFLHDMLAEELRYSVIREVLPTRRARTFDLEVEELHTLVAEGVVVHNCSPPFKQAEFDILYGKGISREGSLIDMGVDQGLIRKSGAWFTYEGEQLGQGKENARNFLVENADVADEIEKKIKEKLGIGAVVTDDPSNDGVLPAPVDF
Mtb betalactam: beta-lactam sensitization of Mtb H37Rv, H37Rv; M. tuberculosis H37Rv growth with meropenem, percent inhibition; hits of this screen are not shown here; inhibition, % at 25 µM; actives 0.27% (n = 330,000); AID 434955, 2010;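 active = about 74% or more and at least 40 points above the plate without the antibiotic, then above 30% in a dose series; inconclusive = first-round hits that could not be retested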;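 note: growth measured after seven days incubation then overnight dye step; 0% = bacteria only wells and 100% = bacteria with antibiotic; twin plates without the antibiotic show which effects depend on it; some results filed as inactive read as strong as hits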
Arbovirus inh repeat: also measured in Arbovirus inh; calls as there; inhibition, %; measured here: 10K subset replicate screen; many hits read low in the repeat;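 first of two repeat runs on a subset; 0% = infected and 100% = uninfected wells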
* marks the source's active call; other numbers are inactive results; ? = inconclusive; · = not tested or not shown; & = joins results of further samples.

SMILES	YopH PTP inh	Arbovirus inh	Mtb growth	RecA intein inh	Mtb betalactam	others
COc1ccc(CC(=O)OCC(=O)NCc2ccccc2Cl)cc1	·	4	8%	3.9	2
COc1cc(C=O)cc(OC)c1OS(=O)(=O)c1ccc(NC(C)=O)cc1	-39	7	3%	-2.3	3
CC(C)CC(NS(=O)(=O)c1ccc2c(c1)oc(=O)n2C)C(=O)NCc1cccnc1 (stereo not drawn)	-12	-1	-2%	-1.7	-1	Arbovirus inh repeat=4
CCOC(=O)CSc1nnc(-c2cccnc2)n1C	·	-2	-6%	-1.0	9
Cc1ccc(/C=N/n2c(COc3ccccc3)n[nH]c2=S)o1	·	4	7%	-1.2	-3
COc1ccccc1-c1nc(=S)c(C(C)=O)c(C)[nH]1	·	·	-4%	0.8	-1
CC(O)C(=O)N/N=C/c1cccc2ccccc12 (stereo not drawn)	-22	-2	5%	-2.1	·
CCOC(=O)N1CCN(C(=O)Cc2ccccc2[N+](=O)[O-])CC1	·	·	·	-6.2	-2
COc1cccc(C2C(C(=O)c3cc4ccccc4o3)=C(O)C(=O)N2c2cc(C)on2)c1OC (stereo not drawn)	-14	2	·	1.5	10
Nc1nonc1-n1nnc(C(=O)N/N=C/c2ccccc2Cl)c1CN1CCOCC1	·	·	·	0.6	-3
Cc1cc(-c2csc(NC(=O)c3ccc(=O)[nH]c3)n2)c(C)n1Cc1ccco1	·	·	-10%	1.6	-4
OCC1(Cc2ccccc2C(F)(F)F)CCN(Cc2ccccc2)CC1	·	-2	3%	-2.6	-3
Cn1c(=O)n(CCOc2ccc([N+](=O)[O-])cc2)c2ccccc21	·	·	5%	-1.5	-2
Cc1ccc(Nc2nc(CSc3nnc(-c4ccccc4)n3C)cs2)cc1	4	-6	6%	6.6	17
COc1ccccc1C(=O)NC(CCSC)C(=O)OCC(=O)c1ccc[nH]1 (stereo not drawn)	-18	-2	-2%	-0.6	-2
CC(=O)N1CCN(c2nc(-c3ccco3)c3c(c2C#N)CC(C)(C)SC3)CC1	-31	-18	11%	-10	26
COC(=O)c1ccc(N=Nc2ccccc2)cc1	·	-13	?	12	71
Cc1sc2ncnc(N[C@@H](Cc3c[nH]c4ccccc34)C(=O)O)c2c1C	-26	-1	-10%	-0.7	-8
COc1ccc(/C(N)=N/OC(=O)c2cc(-c3ccccc3)nc3ccccc23)cc1	-54	6	2%	-0.7	9
O=C(CSc1nnc(COc2ccccc2)n1Cc1ccco1)NCc1ccco1	-14	5	-4%	4.1	-5
CCCN(CC1CCCO1)C(=O)c1cc(COc2ccc(F)cc2F)on1 (stereo not drawn)	·	·	·	4.3	?
Cc1ccc(NC2=C(C(=O)c3ccccc3)N(C)S(=O)(=O)c3ccccc32)cc1	-10	6	-4%	10	16
CC(C)c1cc(O)c(-c2ccccc2)c(=O)n1-c1ccc(Cl)cc1	·	·	0%	0.2	-9
COc1ccc(-c2ncn(CCC#N)c2[N+](=O)[O-])cc1	·	20	64%	-0.7	0
COc1ccc2nc(NC(=O)C3CCN(C(=O)c4ccco4)CC3)sc2c1	·	·	·	3.8	5
Cn1c(C(=O)NC2CCCCC2)cc2c(=O)n3ccccc3nc21	·	·	·	-405	0
O=C(CN1CCN(S(=O)(=O)c2ccc(Cl)cc2)CC1)NC1CCCC1	·	·	·	-0.7	-1
Cc1cc(N)n(-c2ccc([N+](=O)[O-])cc2)n1	·	1	0%	0.7	2
COc1ccc(-c2nnc(SC(C(=O)c3c[nH]c4ccccc34)c3ccccc3)n2N)cc1OC (stereo not drawn)	-25	-11	>100µM*	3.3	86
O=C(O)CCCc1ccc(N(CCCl)CCCl)cc1	-35	-5	-9%	0.7	-4
O=C(N/N=C/c1ccc(F)c(F)c1)c1cc2c(s1)-c1ccccc1CC2	-31	-14	-2%	0.0	59
Cc1cc(NS(=O)(=O)c2ccc(NC(=O)Cc3ccc([N+](=O)[O-])cc3)cc2)no1	·	·	·	1.1	-2
CCn1nc(C)cc1C(=O)n1nc(C)c(Sc2ncccn2)c1C	·	·	-4%	1.5	-11
N#CCC(=O)N1CC2(CC(c3cccc(NC(=O)COc4ccc(Cl)cc4)c3)=NO2)C[C@@H]1C(N)=O (stereo partly drawn)	·	·	-2%	2.6	-8
CCN1CCN(c2ccc(NC(=O)C(C)C)cc2Cl)CC1	6	-7	-1%	-0.6	-2
CCOC(=O)N1CCN(c2c(Nc3cc(C)[nH]n3)c(=O)c2=O)CC1	-38	4	-12%	-4.0	-6
COc1ccc(/C=N/NC(=O)c2ccc(N(C)S(=O)(=O)c3ccccc3)cc2)cc1OC	-20	4	4%	3.0	0
Cc1ccc(OCC(=O)Nc2ccc(S(=O)(=O)N3CCCCC3)cc2)c([N+](=O)[O-])n1	·	4	7%	3.6	1
c1cncc(-c2nnc(-c3ccco3)o2)c1	-24	2	4%	0.0	-2
Cc1cc(C)n(-c2ccc(C(=O)OCC(=O)NCc3ccco3)cc2)n1	-40	-1	1%	3.0	38
Cc1ccc(C(=O)Nc2nnc(-c3ccc(C(C)(C)C)cc3)s2)cc1	-51	3	9%	4.5	2
COc1ccc(Cl)cc1C(=O)NC(C)C	·	8	2%	-0.8	2
Cc1cc(NC(=O)CSc2nnc(C)o2)no1	·	·	·	-2.0	-4
O=C(Nc1ccc(F)cc1F)c1ccc(S(=O)(=O)N2CCCCC2)cc1	·	·	·	-5.1	-1
c1ccc(-n2cc(CN3CCC(N4CCOCC4)CC3)c(-c3ccc4c(c3)OCO4)n2)cc1	·	-17	0%	-0.2	-3
CCOC(=O)c1cccc(NC(=O)Cn2cnc3c2c(=O)n(C)c(=O)n3C)c1	-12	4	-12%	-3.6	1
Clc1cccc(Cl)c1NC1=NCCN1	·	14	-5%&1%	0.0	-4
COc1cccc(COC(=O)C2CCN(S(=O)(=O)c3ccc(Cl)cc3)CC2)c1OC	·	·	·	2.3	10

Random excerpt: 2 compounds from above
SMILES	YopH PTP inh	Arbovirus inh	Mtb growth	RecA intein inh	Mtb betalactam	others
O=C(Nc1ccc(F)cc1F)c1ccc(S(=O)(=O)N2CCCCC2)cc1	·	·	·	-5.1	-1
Cc1cc(C)n(-c2ccc(C(=O)OCC(=O)NCc3ccco3)cc2)n1	-40	-1	1%	3.0	38

New compounds follow.
SMILES	YopH PTP inh	Arbovirus inh	Mtb growth	RecA intein inh	Mtb betalactam	others
Cc1ccc(C(=O)NCC(c2ccco2)N2CCc3ccccc32)cc1 (stereo not drawn)	·	·	·	4.0	-4
CC1CC(C)CN(c2ncc3c(n2)CC(c2ccc(Cl)cc2)CC3=O)C1 (stereo not drawn)	-40	10	-1%	-0.4	-4
CCN(C(=O)CSc1nnc(-c2cccs2)n1N)c1c(N)n(Cc2ccccc2)c(=O)[nH]c1=O	·	·	·	-0.2	-4
C=CCNC(=O)CN1CCN(C(c2ccccc2)c2ccccc2)CC1	·	·	·	2.8	-3
Cc1cc(C)cc(NC(=O)C2CCN(c3cnccn3)CC2)c1	·	8	-4%	-0.4	6
COc1ccc(CN2CCNC(=O)C2CC(=O)NCCCC2CCCC2)c(C)c1C (stereo not drawn)	·	·	·	2.5	-7
CS(=O)(=O)N(CC(=O)Nc1ccccc1F)C1CCCCC1	·	·	·	0.0	6
CC(=O)N(C)c1ccc(NC(=O)c2ccccc2C(=O)O)cc1	-21	0	-2%	-2.6	20
CC1CC(C)CN(CCCNC(=O)Cn2ncn3cccc3c2=O)C1 (stereo not drawn)	-19	7	-10%	-1.6	-8
CCn1c(=O)c([N+](=O)[O-])c(NCCc2ccc(OC)c(OC)c2)c2ccccc21	-33	4	-4%	-65	-2
CCNC(=S)NNC(=O)c1cc(C)nc2ccccc12	-29	-6	-9%	4.3	-1
Cc1cccc(OCCSc2ncnc3nc[nH]c23)c1	3	-28	-2%	0.0	-1
CCCNCCC(c1ccco1)c1ccccc1OC (stereo not drawn)	-4	4	3%	-3.7	1
CC(C)CNC(=O)c1ccccc1NC(=O)CCSc1ccccc1	-17	1	6%	0.4	1
COC(=O)C1=C(N)Oc2cc(C)[nH]c(=O)c2C1c1ccccc1OC (stereo not drawn)	·	·	-8%	-1.2	-6
Cc1cc(C(F)(F)F)nc(SCCN2CCOCC2)c1C#N	·	3	0%	-1.8	-2
CCN1CCN(CCOc2ccccc2-c2ccccc2)CC1	·	-13	1%	-3.3	-4
CCN(CC(=O)Nc1cc(S(=O)(=O)N2CCCCC2)ccc1Cl)Cc1ccccc1	·	·	·	3.7	-6
CN1CCCC(OC(=O)c2ccccc2Br)C1 (stereo not drawn)	·	·	·	0.6	1
COc1cccc(-c2nnc(NC(=O)c3cccs3)s2)c1	·	-3	2%	-2.9	-6
COc1cc(CC(=O)Nc2ccc(N3CCOCC3)cc2)cc(OC)c1OC	·	1	-9%	-4.8	0
CN(C(=O)COC(=O)CNC(=O)c1ccc(C(C)(C)C)cc1)c1c(N)n(Cc2ccccc2)c(=O)[nH]c1=O	·	·	·	3.6	-6
O=C(N/N=C/c1cccnc1)c1cc(-c2ccc(Br)cc2)nc2ccccc12	·	·	·	-1.6	2
COc1ccc(-c2ccc(N(C)C)cc2)cc1[C@H]1[C@@H]2C=CCC[C@@]2(C)C(=O)N1Cc1ccccc1	·	·	22%	29	-1

Continued, overlapping the part above by three compounds.
SMILES	YopH PTP inh	Arbovirus inh	Mtb growth	RecA intein inh	Mtb betalactam	others
CN(C(=O)COC(=O)CNC(=O)c1ccc(C(C)(C)C)cc1)c1c(N)n(Cc2ccccc2)c(=O)[nH]c1=O	·	·	·	3.6	-6
O=C(N/N=C/c1cccnc1)c1cc(-c2ccc(Br)cc2)nc2ccccc12	·	·	·	-1.6	2
COc1ccc(-c2ccc(N(C)C)cc2)cc1[C@H]1[C@@H]2C=CCC[C@@]2(C)C(=O)N1Cc1ccccc1	·	·	22%	29	-1
O=C(COc1ccc(Oc2ccccc2)cc1)NCc1cn2ccccc2n1	·	-13	6%	2.3	6
Cc1nn(CC2CC2)c(=O)n1-c1cccc(Cl)c1	·	4	3%	-2.6	-4
CCC(C)/C=C(C)/C=C/C1=CC2=C(Cl)C(=O)C(C)(OC(C)=O)C(=O)C2=CO1 (stereo not drawn)	·	-13	4%	-3.0	1
CCNc1nc(SCC(=O)Nc2ccccc2)nc(N2CCOCC2)n1	·	·	·	-2.4	4
CN(C)S(=O)(=O)N1CCN(c2ccc([N+](=O)[O-])cc2)CC1	·	17	7%	1.0	-1
CCc1cccc(CC)c1NC(=O)C1SC(=Nc2ccccc2C)C(c2nc3ccccc3s2)=C1N (stereo not drawn)	-17	-22	·	-25	9
COc1ccc(NC(=O)CCNS(=O)(=O)c2ccc3c(c2)CC(C)N3C(=O)C2CC2)cc1 (stereo not drawn)	·	·	·	2.5	1
CC(=O)NC1(c2ccc(F)cc2)CCN(C(=O)Nc2ccc(F)cc2F)CC1	-11	9	-2%	-0.7	-11
CCC(C)n1c(SCC(=O)Nc2cc(C(C)(C)C)nn2-c2ccccc2)nc2ccccc2c1=O (stereo not drawn)	-30	-4	9%	14	-8
COc1cc(/C=C2\C(=O)N(C)C(=S)N2C)ccc1O	0	0	-5%	-2.1	-3
CC1CCN(S(=O)(=O)c2ccc(C(=O)NNC(=O)C3CC3)cc2)CC1	·	0	-1%	-1.1	3
O=[N+]([O-])c1ccc(N/N=C/c2cccc(O)c2)cc1	·	·	·	-10.0	89
CCCNC(=O)COC(=O)c1cc2c(=O)n3ccccc3nc2s1	-30	11	10%	-208	-2
O=C(COC(=O)C1=Cc2ccccc2OC1)NCc1ccco1	·	7	-3%	-2.4	2
CCc1ccc(C(=O)CN2C(=O)NC(C)(c3ccc(C)cc3)C2=O)cc1 (stereo not drawn)	·	0	5%	7.7	3
O=C(/C=C/c1ccccn1)c1ccc(Br)cc1O	-8	-9	8%	·	40
COc1ccc(CN(C(=O)c2nsc(Cl)c2Cl)C(C(=O)NC2CCCCC2)c2ccc(OC)cc2)cc1 (stereo not drawn)	-30	-24	7%	9.2	18
COC(=O)Cc1nc(NC(=O)c2cccs2)sc1C	·	·	·	0.4	2
COc1ccc(OC)c(S(=O)(=O)Nc2ccc(-c3ccc4nncn4n3)cc2)c1	·	·	·	-1.2	-7
CC(C)(C)NS(=O)(=O)c1ccc(OCC(=O)NCC2CCCO2)cc1 (stereo not drawn)	·	·	·	3.9	-13

A draw from above in order of length of the SMILES, low to high:
SMILES	YopH PTP inh	Arbovirus inh	Mtb growth	RecA intein inh	Mtb betalactam	others
O=C(COC(=O)C1=Cc2ccccc2OC1)NCc1ccco1	·	7	-3%	-2.4	2
O=C(CSc1nnc(COc2ccccc2)n1Cc1ccco1)NCc1ccco1	-14	5	-4%	4.1	-5
c1ccc(-n2cc(CN3CCC(N4CCOCC4)CC3)c(-c3ccc4c(c3)OCO4)n2)cc1	·	-17	0%	-0.2	-3

A portion of the library; the hit share may differ from the screen's.
